Source: PubChem BioAssay
HSV augment: HSV replication enhancement; HSV replication augmentation in cells, fold increase; maximum fold increase; 0.005% of 220,000 active;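 active = peak rise of 1.5-fold or more in the series; tested in PC3 cells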;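 note: first round at 10 µM; read as green reporter fluorescence; hits show the peak of a series up to 25 µM; 1 = signal of infected wells without compound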
Insulin prom inh: TRM-6 insulin promoter activity inhibition | TRM-6 cells (human fetal islet line), insulin promoter-eGFP reporter, imaging; reporter expression induced with tamoxifen | inhibition, % at 2 µM | 0.9% of 130,000 active;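 active = inhibition above the mean plus 3 SD, with well images judged a real hit on visual review, cut at about 60% in these data, passing the limit was not always enough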
RGS16-Gao: regulators of human RGS16-Galphao interaction; O15492+P09471; bead-based flow cytometry RGS16-Galphao binding, fluorescence; actives lie on both sides; binding response (% of control), % at 10 µM; 0.38% of 220,000 active;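 active = below 25% or above 175%, edge rows of some plates excepted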;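 note: Galphao activated by GDP with aluminum fluoride before binding; 100% = wells without compound and 0% = beads without RGS; some results beyond the cut were filed as inactive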
Target sequence (O15492 whole entry, looked up): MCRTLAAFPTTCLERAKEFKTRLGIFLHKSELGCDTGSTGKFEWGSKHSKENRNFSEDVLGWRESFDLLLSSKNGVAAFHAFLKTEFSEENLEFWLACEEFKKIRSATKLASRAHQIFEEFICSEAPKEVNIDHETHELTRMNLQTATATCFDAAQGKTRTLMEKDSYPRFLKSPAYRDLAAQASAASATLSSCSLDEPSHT
Target sequence (P09471 whole entry, looked up): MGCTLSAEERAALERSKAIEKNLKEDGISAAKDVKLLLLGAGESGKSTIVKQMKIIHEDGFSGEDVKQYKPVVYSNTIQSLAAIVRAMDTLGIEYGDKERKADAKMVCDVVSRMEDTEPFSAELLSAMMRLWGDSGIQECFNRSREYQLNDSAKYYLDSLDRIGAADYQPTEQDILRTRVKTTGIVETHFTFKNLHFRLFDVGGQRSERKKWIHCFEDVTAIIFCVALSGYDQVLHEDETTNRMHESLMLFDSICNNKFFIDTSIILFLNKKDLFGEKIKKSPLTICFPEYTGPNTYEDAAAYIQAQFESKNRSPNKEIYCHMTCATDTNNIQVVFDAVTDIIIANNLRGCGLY
GALR2 ag: GALR2 (human) receptor agonism; AID 803; activation, %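 (tested at 5 µM)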; O43603; GALR2-expressing cells, agonist activation read-out; 0.48% of 140,000 active;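 active = above mean plus 3 SD of all compounds, about 5% in these data, not always enough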;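 note: 0% = vehicle buffer wells and 100% = reference agonist at full effect; tested in CHO reporter cells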
Target sequence (O43603 whole entry, looked up): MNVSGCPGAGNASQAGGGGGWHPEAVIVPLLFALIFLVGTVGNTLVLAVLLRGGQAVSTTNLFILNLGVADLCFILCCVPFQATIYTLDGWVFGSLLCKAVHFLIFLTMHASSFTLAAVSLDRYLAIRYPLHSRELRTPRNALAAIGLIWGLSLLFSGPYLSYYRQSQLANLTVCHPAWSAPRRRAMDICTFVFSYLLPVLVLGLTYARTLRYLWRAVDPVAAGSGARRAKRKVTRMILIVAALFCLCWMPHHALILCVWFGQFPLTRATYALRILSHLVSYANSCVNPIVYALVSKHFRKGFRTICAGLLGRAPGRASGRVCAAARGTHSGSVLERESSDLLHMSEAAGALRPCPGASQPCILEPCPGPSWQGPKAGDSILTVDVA
PKD1 kinase inh: PKD1 (human) kinase inhibition. 0.056% of 200,000 active. PKD1 kinase fluorescence polarization assay. inhibition, %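 (about 10 µM by stock and volumes)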;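 active = inhibition of 50% or more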;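 note: controls were vehicle for no effect and a reference inhibitor for full effect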
Insulin prom inh cell count: second read-out of Insulin prom inh, no call of its own (marks repeat the call); normalized cell count, %; measured here: cell count, toxicity; reference of the scale not given here;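 cells exposed to compound for 48 h; stained nuclei by imaging scaled within each plate; lower means fewer cells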
HSV augment primary fold: also measured in HSV augment; calls as there; fold increase; compound at 10 µM; measured here: primary screen fold increase 10 uM; tested in PC3 cells;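 GFP signal in the first replicate; 1 = infected wells without compound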
Numbers without * were called inactive; i = inactive; · = not tested or not shown. Compounds were not picked by outcome. About 1.3% of those tested had a hit in this group.

SMILES	HSV augment	HSV augment primary fold	Insulin prom inh	Insulin prom inh cell count	RGS16-Gao	GALR2 ag	PKD1 kinase inh
COCCn1nnnc1C(c1ccc(OC)cc1OC)N1CCN(c2ccccc2F)CC1 (stereo not given)	i	0.86	9	98	84	-1.9	-4
COc1ccc(NC(=O)C(Sc2nnc3ccccn23)c2ccccc2)cc1Cl (stereo not given)	i	1	2	89	102	-0.5	9
Cc1ccccc1S(=O)(=O)Nc1nc2ccccc2nc1Cl	i	0.96	47	116	106	·	-4
CCOc1cc(NC(=O)C2CC2)c(OCC)cc1NC(=O)c1ccccn1	i	0.95	-3	88	127	0.6	-8
O=C(CN(Cc1cccs1)C(=O)CNS(=O)(=O)c1ccc(F)cc1)NCC1CCCO1 (stereo not given)	i	1.6	·	·	96	·	4
COC(=O)c1c(C)[nH]c(C)c1-c1ccccc1	i	0.94	·	·	100	-2.2	7
Cc1c(C(=O)NC(C)CN2CCCCC2)oc2ccccc12 (stereo not given)	i	1.3	44	101	106	-2.3	-8
S=C(NCc1cccs1)Nc1cc(Cl)cc(Cl)c1	i	1	·	·	102	·	·
Cc1cc(=O)oc2cc(OCC(=O)Nc3nnc(C(C)C)s3)ccc12	i	0.98	·	·	105	-3.1	-5
CCOc1ccc2[nH]c(C)cc(=O)c2c1	i	0.87	·	·	118	2.0	9
CCOC(=O)/C(=C\c1cn(C)c2ccccc12)[N+](=O)[O-]	i	0.9	0	96	162	-1.8	-8
CCOC(=O)c1[nH]c2cc(OC)c(OC)cc2c1NC(=O)c1nonc1C	i	1	·	·	98	-1.1	-9
C=CCN1C2=NCCCN2c2ccccc21	i	1.1	·	·	103	·	·
CCCNC(=O)COC(=O)c1cc(-c2ccc(OC)cc2)nc2ccccc12	i	1	·	·	100	·	3
CC(C)n1c(=S)[nH]c2c1c(=O)[nH]c(=O)n2C	i	0.77	45	78	101	-1.4	-1
COc1cccc(NC(=O)CC(C)=O)c1	i	0.97	-29	98	89	-1.9	-8
CN(C(=O)CSc1nc2cc(Cl)ccc2c(=O)n1Cc1ccco1)C1CCS(=O)(=O)C1 (stereo not given)	i	0.91	24	69	99	·	-5
Cc1cc(C)cc(N(CC(=O)N2CCn3c2nc2ccccc23)S(=O)(=O)c2c(C)noc2C)c1	i	0.92	·	·	101	-1.9	-7
CCc1nnc(NC(=O)Cn2nc(-c3ccc(OC)c(OC)c3)ccc2=O)s1	i	0.85	-83	79	96	-0.1	3
CC(=O)COC(=O)c1cc(-c2ccc(C)cc2)nc2ccccc12	i	0.95	17	209	110	·	-2

Shown with two lines to a compound: part of the list above
Below each compound – HSV augment, HSV augment primary fold, Insulin prom inh, Insulin prom inh cell count, RGS16-Gao, GALR2 ag, PKD1 kinase inh
> CCCNC(=O)COC(=O)c1cc(-c2ccc(OC)cc2)nc2ccccc12
→ i, 1, ·, ·, 100, ·, 3
> CC(C)n1c(=S)[nH]c2c1c(=O)[nH]c(=O)n2C
→ i, 0.77, 45, 78, 101, -1.4, -1
> COc1cccc(NC(=O)CC(C)=O)c1
→ i, 0.97, -29, 98, 89, -1.9, -8

One compound at a time, as listed above.
Listed for COC(=O)c1c(C)[nH]c(C)c1-c1ccccc1 : HSV augment = i; HSV augment primary fold = 0.94; Insulin prom inh = ·; Insulin prom inh cell count = ·; RGS16-Gao = 100; GALR2 ag = -2.2; PKD1 kinase inh = 7
Listed for Cc1cc(=O)oc2cc(OCC(=O)Nc3nnc(C(C)C)s3)ccc12 : HSV augment = i; HSV augment primary fold = 0.98; Insulin prom inh = ·; Insulin prom inh cell count = ·; RGS16-Gao = 105; GALR2 ag = -3.1; PKD1 kinase inh = -5

Following part
SMILES	HSV augment	HSV augment primary fold	Insulin prom inh	Insulin prom inh cell count	RGS16-Gao	GALR2 ag	PKD1 kinase inh
Cc1cc(NC(=S)Nc2ccc(C)c(Cl)c2)n[nH]1	i	0.82	·	·	100	·	0
Fc1ccccc1Nc1n[nH]c(=S)s1	i	0.76	·	·	98	·	1
Cc1ccc(-n2nc3c(c2NC(=O)CCC2CCCCC2)CS(=O)C3)cc1 (stereo not given)	i	0.91	·	·	104	-2.8	7
CCc1cc2c(SCC#N)ncnc2s1	i	1	·	·	104	·	-10
Cc1ccn2c(NC(=O)c3ccco3)c(-c3ccccc3)nc2c1	i	1	-5	17	·	-1.0	1
CN(C)c1nnnn1-c1cccc(Oc2ncc(C(F)(F)F)cc2Cl)c1	i	1.1	-36	100	104	·	-8
Cc1cc(N/N=C/c2ccc(N(C)C)cc2)nc(NCc2ccccc2)n1	i	0.92	·	·	100	·	·
CC(=O)c1c(C)[nH]c(C(=O)NCc2cccs2)c1C	i	1	56	146	106	-1.7	-1
COc1cc(C(=O)OCC(=O)Nc2c(F)c(F)c(F)c(F)c2F)cc(OC)c1OC	i	1	-21	127	105	-1.0	-9
O=C(NC1CCCC1)C(NS(=O)(=O)c1cccc2nsnc12)c1ccccc1 (stereo not given)	i	0.95	-21	149	97	0.4	11
Cc1cc(Cl)c(S(N)(=O)=O)cc1OCC(N)=O	i	1	12	126	94	-1.0	3
Cc1onc(-c2c(F)cccc2Cl)c1C(=O)NCCc1ccc(S(N)(=O)=O)cc1	i	0.88	38	109	92	-1.1	-6
O=C(c1ccccc1)N1CCN(C(=O)C23CC4CC(CC(C4)C2)C3)CC1	i	0.89	12	118	59	-0.8	2
CCOC(=O)c1sc(=NC(=O)/C=C/c2cccs2)n(C)c1C	i	0.95	56	65	100	·	-9
c1ccc(Cn2nnnc2CN2CCOCC2)cc1	i	1	27	83	110	-1.4	-2
Cc1c(Br)c(C(F)(F)F)nn1CC(=O)NCCN1CCOCC1	i	1.1	31	113	179	-0.4	-9
COc1ccc(N2Cc3cccc(C(=O)N4CCOCC4)c3C2=O)cc1	i	1	·	·	103	-0.4	0
Cc1ccc(S(=O)(=O)N(C)C2(C)CCS(=O)(=O)C2)cc1 (stereo not given)	i	1	0	131	104	-1.3	-4
COCCNC(=O)CN(c1cc(C(F)(F)F)ccc1Cl)S(C)(=O)=O	i	1.1	39	117	100	-2.2	9
Cn1c2c(c(=O)n(C)c1=O)CN(CC1CCCO1)CN2 (stereo not given)	i	0.83	·	·	100	-1.6	5

6 entries out of the list above, sorted by the number in HSV augment primary fold, rising:
| compound | HSV augment primary fold |
| --- | --- |
| Cc1cc(NC(=S)Nc2ccc(C)c(Cl)c2)n[nH]1 | 0.82 |
| Cn1c2c(c(=O)n(C)c1=O)CN(CC1CCCO1)CN2 (stereo not given) | 0.83 |
| Cc1onc(-c2c(F)cccc2Cl)c1C(=O)NCCc1ccc(S(N)(=O)=O)cc1 | 0.88 |
| O=C(c1ccccc1)N1CCN(C(=O)C23CC4CC(CC(C4)C2)C3)CC1 | 0.89 |
| Cc1ccn2c(NC(=O)c3ccco3)c(-c3ccccc3)nc2c1 | 1 |
| COCCNC(=O)CN(c1cc(C(F)(F)F)ccc1Cl)S(C)(=O)=O | 1.1 |

(further entries)
SMILES	HSV augment	HSV augment primary fold	Insulin prom inh	Insulin prom inh cell count	RGS16-Gao	GALR2 ag	PKD1 kinase inh
O=C1N/C(=C/c2ccc(N3CCOCC3)cc2)C(=O)N1Cc1ccc(F)cc1	i	0.78	8	115	113	-1.3	18
[O-]C1=N/[N+](=C/c2ccc(Cl)c(Cl)c2)CC1	i	0.98	29	112	126	-1.6	-5
COc1cc(NC(=O)c2ccc([N+](=O)[O-])cc2)ccc1NC(=O)C(C)C	i	1	·	·	94	·	0
COc1ccccc1-c1ccc(SCc2ccccc2F)nn1	i	1	·	·	100	·	-14
Cc1cccc(NC(=O)CSc2nnc(C)c(=O)n2N)c1	i	1	46	72	102	·	3
O=C(O)c1cccnc1SCc1ccccc1Cl	i	0.88	-21	105	83	·	-3
Cc1cccc(CCN(C(=O)Cc2cccs2)C(C(=O)NC2CCCCC2)c2cccnc2)c1 (stereo not given)	i	0.89	21	71	105	0.0	-11
Clc1ccc(-c2csc(N3CCC(c4ccccc4)C3)n2)cc1 (stereo not given)	i	0.95	-54	133	90	-3.0	-4
CSC1=N/C(=C\c2ccccc2C)C(=O)S1	i	1	13	84	104	·	-4
CC(C)(C)c1ccc(C(=O)NNC(=O)C2CCCCC2)cc1	i	0.97	·	·	171	-0.1	-5
Cc1nc2nc(SCc3ccc([N+](=O)[O-])cc3)[nH]c2cc1Br	i	0.96	·	·	90	·	·
CCOC(=O)c1[nH]c(C)c(C)c1C	i	0.86	·	·	94	0.0	-3
CCN1C(=O)/C(=C2/Sc3ccc(OC)cc3N2C)SC1=Nc1ccc(C)cc1	·	·	-33	136	·	-1.8	-9
CCN(CCCNC(=O)Cn1ncc2c(=O)oc3ccccc3c21)c1cccc(C)c1	·	·	·	·	93	-1.1	6
Cc1ccc2nsnc2c1NC(=O)c1cncc(Br)c1	i	0.78	·	·	105	·	1
COc1cccc(C(=O)Nc2ccccc2N2CCOCC2)c1	i	0.97	-111	107	100	-1.0	-7
O=C(NCCOC12CC3CC(CC(C3)C1)C2)c1cccc(Br)c1	i	1.1	21	125	99	-1.1	-3
COC(=O)c1cc(NC(=O)C2CCCN(S(=O)(=O)c3c(C)n[nH]c3C)C2)cc(C(=O)OC)c1 (stereo not given)	i	0.8	·	·	102	·	-9
Cc1ccc(N2C(=O)N(CC(=O)NCc3ccc(Cl)cc3)C(=O)C2C)cc1 (stereo not given)	i	1.1	26	106	95	-1.5	-4
CCc1ccc2c(c1)[C@H]1OCC[C@H]1[C@@H](c1cccs1)N2	i	0.68	44	102	107	0.0	-3
COc1cccc(C(=O)N=c2sc3c(C)ccc(OC)c3n2C)c1	i	0.93	·	·	99	·	·
CCCc1nc2c(nnn2Cc2ccccc2)c(=O)[nH]1	i	1	30	149	107	-0.4	-7
CC1(C)Cc2c(c(=S)nc(-c3ccccc3)n2Cc2cccnc2)CO1	i	1.1	·	·	100	·	·
Cc1noc2ncnc(N3CCN(c4ccc(F)cc4)CC3)c12	i	0.94	18	153	110	·	1
O=C(O)C1CC=CCC1C(=O)NNS(=O)(=O)c1ccccc1 (stereo not given)	i	1.1	-29	105	99	·	1
CCC(CC)NC(=O)CCc1nc2ccccc2c(=O)[nH]1	i	0.93	-23	102	97	0.9	-6
COc1cccc(C(=O)Nc2ccc(NC(=O)C(C)(C)C)cn2)c1	i	0.99	-11	152	103	-0.8	12
COc1cc(CN(C)C(C)C(=O)Nc2ccc([N+](=O)[O-])cc2Cl)ccc1OC(F)F (stereo not given)	i	1.2	·	·	101	-0.3	1
CCn1c(=O)cc(N2CCOCC2)[nH]c1=O	i	1.1	24	159	100	·	-2
O=C(NC(NC(=S)Nc1ccccc1C(=O)O)C(Cl)(Cl)Cl)c1cccc([N+](=O)[O-])c1 (stereo not given)	i	0.86	-3	135	106	-1.5	-2
Cc1cc(NC(=O)C2C3C=CC(C3)C2C(=O)O)no1 (stereo not given)	i	1	-46	60	102	-1.0	2
Cc1oc2c(c1C(=O)N1CCOCC1)C(=O)c1ccccc1C2=O	i	0.62	12	88	99	·	-7
COc1ccccc1NC(=O)N(Cc1cc2cc(OC)c(OC)cc2[nH]c1=O)CC1CCCO1 (stereo not given)	i	0.93	12	117	101	-3.3	-6
CC1=C(C(=O)OCc2ccccc2)C(c2ccc(Cl)cc2Cl)NC(=O)N1CCCCCC(=O)O (stereo not given)	i	0.69	-10	43	114	-0.7	-2
CN1CCN(c2ccccc2NC(=O)c2ccc(N3CCCC3)c([N+](=O)[O-])c2)CC1	i	0.77	·	·	96	·	0
CCCC(C(=O)NC1CCCC1)N(C(=O)Cn1nnc(-c2ccc(C)o2)n1)c1ccccc1OC (stereo not given)	i	0.92	·	·	105	1.7	-11
N#Cc1ccc(-c2ccc(OCC(O)Cn3nnc4ccccc43)cc2)cc1 (stereo not given)	i	0.94	11	85	104	-1.1	3
Clc1ccccc1-c1nnc2sc(-c3ccncc3)nn12	i	1	·	·	104	-1.6	6
Cc1ccc(-n2ncc3c(=O)n(CC(=O)NCc4ccco4)cnc32)cc1C	i	0.82	·	·	97	-2.2	5
COc1cc2c(cc1NC(=O)CSc1nnnn1-c1ccccc1)oc1ccccc12	i	0.82	·	·	100	-0.9	-6
COc1cc(/C=N/NC(=S)Nc2cccc(S(=O)(=O)N(C)C)c2)ccc1O	i	0.91	54	134	104	-0.9	-3
CCn1c(O)c(C2=NCCCC2)c2ccccc21	i	0.87	-3	108	105	-2.4	-8
CCCCN(CCCC)CC(O)CN1C(=O)NC(C)(C)C1=O (stereo not given)	i	0.94	21	72	103	-3.0	-3
COc1ccc(OC)c(-c2cc(C(=O)Nc3cccc(Cl)c3)no2)c1	i	1.2	·	·	100	-3.2	-3
COc1ccc(/C(N)=N/OC(=O)c2cccc([N+](=O)[O-])c2)cc1	i	0.96	-3	89	102	-0.9	-2
Cc1ccc(C(=O)c2c(NC(=O)CSc3nnc(N)s3)sc3c2CCCC3)cc1	i	0.93	21	109	88	0.0	-4
Oc1ccc(/C=N\Nc2cc(N3CCOCC3)nc(N3CCOCC3)n2)c(O)c1	i	0.82	-185	180	106	-0.8	0
